YopH PTP inh = YopH tyrosine phosphatase inhibitors, primary screen, biochemical, fluorescence Ex485/Em525 | YopH tyrosine phosphatase [Yersinia enterocolitica] | inhibition, %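 (about 10 µM by stock and volumes)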 | actives 0.16% (n = 140,000) | AID 898, 2007;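 active = inhibition of 50% or more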;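 note: controls were vehicle for no effect and minimum signal wells for full effect; inactives centre near -20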
RecA splice inh = Mtb RecA intein splicing inhibitors, primary screen, biochemical, fluorescence, HTS | Protein RecA (Mycobacterium tuberculosis (strain ATCC 25618 / H37Rv)), P9WHJ3 | cell-free RecA intein splicing | inhibition, %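 (about 9 µM by stock and volumes)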 | actives 0.75% (n = 290,000) | AID 2221, 2009; in the data active = inhibition above about 30%; inconclusive = no clear call, values can overlap the other calls;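 note: 0% = vehicle wells and 100% = reference inhibitor control wells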
Target sequence (P9WHJ3 whole entry, looked up, canonical isoform): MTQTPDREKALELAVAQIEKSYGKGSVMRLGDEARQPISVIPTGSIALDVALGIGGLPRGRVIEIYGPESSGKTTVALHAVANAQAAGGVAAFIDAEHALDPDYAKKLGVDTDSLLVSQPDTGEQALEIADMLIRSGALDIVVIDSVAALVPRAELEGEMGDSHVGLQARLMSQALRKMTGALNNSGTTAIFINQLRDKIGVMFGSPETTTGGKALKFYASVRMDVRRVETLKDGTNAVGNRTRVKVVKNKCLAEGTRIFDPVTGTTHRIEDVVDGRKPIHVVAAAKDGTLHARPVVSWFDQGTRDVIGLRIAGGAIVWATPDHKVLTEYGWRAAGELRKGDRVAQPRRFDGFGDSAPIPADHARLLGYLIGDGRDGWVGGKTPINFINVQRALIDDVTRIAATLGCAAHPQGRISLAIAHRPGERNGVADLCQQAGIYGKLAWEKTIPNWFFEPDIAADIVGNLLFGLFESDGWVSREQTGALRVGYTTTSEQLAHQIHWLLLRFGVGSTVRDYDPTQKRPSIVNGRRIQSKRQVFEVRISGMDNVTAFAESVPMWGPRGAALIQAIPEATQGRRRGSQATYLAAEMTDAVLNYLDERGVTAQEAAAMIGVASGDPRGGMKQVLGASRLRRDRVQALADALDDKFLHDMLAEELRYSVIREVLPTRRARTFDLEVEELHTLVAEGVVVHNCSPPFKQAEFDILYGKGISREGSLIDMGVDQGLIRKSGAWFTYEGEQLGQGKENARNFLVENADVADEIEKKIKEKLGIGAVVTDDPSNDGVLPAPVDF
Mtb growth = M. tuberculosis H37Rv growth inhibitors, H37Rv strain (AID 1626). M. tuberculosis H37Rv growth inhibition; higher % means a stronger effect. one-dose inhibition, % at 10 µM; IC50 in µM for titrated hits. actives 0.95% (n = 220,000);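 active = confirmed in a dose series; inconclusive = inhibition above 80% but not taken into the dose series; inactive = below 80% or under 30% at every dose of the series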;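 note: bacteria incubated seven days before Alamar blue readout; 0% = bacteria only wells and 100% = bacteria with antibiotic wells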
Mtb betalactam = beta-lactam sensitization of Mtb H37Rv, H37Rv | inhibition, % at 25 µM | M. tuberculosis H37Rv growth with meropenem, percent inhibition; hits of this screen are not shown here | actives 0.27% (n = 330,000) | AID 434955, 2010;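 active = about 74% or more and at least 40 points above the plate without the antibiotic, then above 30% in a dose series; inconclusive = first-round hits that could not be retested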;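 note: growth measured after seven days incubation then overnight dye step; 0% = bacteria only wells and 100% = bacteria with antibiotic; twin plates without the antibiotic show which effects depend on it; some results filed as inactive read as strong as hits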
Arbovirus anti = antivirals against arbovirus infection, primary screen, cell-based, full library, 10K replicate subset; actives 0.37% (n = 200,000); arbovirus infection cell-based antiviral screen; inhibition, % at 10 µM;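 active = inhibition from about 30%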;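 note: bluetongue infection of BSR cells; cell survival read as ATP light after 72 h; 0% = infected wells without compound and 100% = uninfected wells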
Arbovirus anti repeat = recorded beside Arbovirus anti, whose call it bears; inhibition, %; measured here: 10K subset replicate screen; many hits read low in the repeat;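 first of two repeat runs on a subset; 0% = infected and 100% = uninfected wells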
Starred values were filed as active, the others as inactive; u = inconclusive; x = no result given.

SMILES	YopH PTP inh	RecA splice inh	Mtb growth	Mtb betalactam	Arbovirus anti	others
CCOc1ccc2[nH]c(=O)c(CN(Cc3nnnn3Cc3ccccc3)CC3CCCO3)cc2c1 (centres undefined)	-31.9	-4.3	-14.3%	-1.1	-2.3
c1ccc2[nH]c(-c3cscn3)nc2c1	-51.2	-2.2	x	-3.0	-0.6
CNC(=O)/C(=C\c1ccc2c(c1)OCO2)NC(=O)c1ccc(Br)cc1	-0.5	0.0	9.0%	1.0	-6.9
C/C(=N/NC(=O)CNc1ccc(Cl)cc1C)c1ccc(C)cc1	x	-0.9	-6.9%	8.0	1.8
CC1CC(C)CN(CCCNC(=O)Cc2c(C(=O)O)n(C)c3ccccc23)C1 (centres undefined)	-13.0	2.2	-5.9%	2.5	6.6
CC(=O)Nc1cccc(/C(C)=N/NC(=O)c2cc(-c3ccncc3)nc3ccccc23)c1	x	-2.1	-10.2%	-8.8	x
CC(C)Oc1ccc(C2C(C#N)=C(N)Oc3c2oc(CO)cc3=O)cc1 (centres undefined)	x	-2.0	6.9%	-0.8	-3.4
N#CC1=C(N)OC2=C(C(=O)CCC2)C12CCC1(CC2)OCCO1	-44.1	-2.1	-5.9%	-12.7	5.0
CCOC(=O)N1CCN(S(=O)(=O)c2ccc(C(=O)Nc3sc4c(c3C#N)CCC4)cc2)CC1	-37.2	-4.9	x	-4.1	-3.2
COc1ccccc1N1CC(C(=O)OCC(=O)c2ccc(F)cc2)CC1=O (centres undefined)	3.8	-1.3	-11.4%	10.2	13.1
CCO[C@H]1OC(C(=O)NCc2ccccc2)=C[C@@H](c2ccccc2)[C@@H]1CCCO	x	3.6	1.9%	-5.8	-8.3
CC1Sc2ccccc2N(CC(=O)N(C(C)C)C(C)C)C1=O (centres undefined)	6.8	0.7	10.3%	-3.5	0.1
CCc1nnc(NC(=O)CCC(=O)N2CCN(Cc3ccc(OC)c(F)c3)CC2)s1	x	-10.2	x	-3.0	x
CNC(=S)N1N=C(c2ccc(C)cc2)CC1c1cc(OC)ccc1OC (centres undefined)	x	13.1	9.3%	-4.2	-17.2
COc1ccc(Cc2c(O)nc(SCC(C)C)[nH]c2=O)cc1	x	1.4	x	-13.8	x
COc1ccc(C(=O)NCC(=O)N/N=C/c2ccc([N+](=O)[O-])o2)cc1OC	x	11.7	2.0%	100.0	x
Cc1cc(Cl)c(S(=O)(=O)N2CCSCC2)cc1OCC(=O)NC1CCCCC1	4.1	-0.1	-1.1%	5.7	0.2
C/C(=N\Nc1cccc([N+](=O)[O-])c1)c1ccccc1O	x	3.2	u	90.2	-5.4
COc1ccccc1C(=O)N/N=C/c1cnc2ccccc2n1	-27.0	-4.5	-7.7%	7.3	-6.0
CCN(CC)S(=O)(=O)c1cccc(C(=O)N/N=C/c2ccc(O)c(O)c2O)c1	10.1	x	-6.2%	6.7	-4.8
CC1(C)CC2(CCO1)N1CC3(C)CN2CC(C)(C1)C3=O (centres undefined)	-30.2	-1.4	-0.3%	-20.0	x
O=C(Nc1ccc2c(c1)OCCO2)c1ccc(CN2CCOCC2)cc1	-32.2	2.1	1.1%	-4.2	1.9
CC(C)(C)NC(=S)NNC(=O)[C@H]1C[C@@H]1c1ccccc1	x	x	-5.7%	2.0	x
CCc1noc(C)c1C(=O)Nc1nc(-c2ccc(OC)cc2)cs1	x	-1.9	x	13.1	x
CCOC(=O)c1c(C)oc2ccc(O)c(CN3CCCCC3)c12	4.8	0.4	1.2%	7.3	6.6

More compounds
SMILES	YopH PTP inh	RecA splice inh	Mtb growth	Mtb betalactam	Arbovirus anti	others
COc1ccc(N2C(=O)CC(N(CCc3ccc(S(N)(=O)=O)cc3)C(=S)Nc3ccccc3)C2=O)cc1 (centres undefined)	x	5.6	5.0%	-3.4	x
COc1ccc(NC(=S)Nc2ccc3snnc3c2)cc1	x	-2.1	-2.2%	-24.3	-1.9
O=C(COc1ncnc2ccccc12)NCCCN1CCCC1=O	-36.6	0.0	-4.6%	-9.2	-0.9
CCOc1ccccc1C(=O)Nc1c[nH]c(=O)[nH]c1=O	x	2.0	x	-1.4	x
CSc1cc(-c2ccccc2)[nH]c(=O)c1C#N	x	-2.8	-3.9%	-2.0	6.2
COc1cc2[nH]c(=O)n3nc(-c4ccccc4)nc3c2cc1OC	-33.4	2.9	-3.0%	8.2	-5.0
CN(Cc1cccc(Cl)c1Cl)c1ccc(S(=O)(=O)N2CCCCC2)cc1[N+](=O)[O-]	-28.9	-0.7	-5.9%	-4.5	8.5
CCOc1c2ccc(C(=O)NCCc3cccs3)cc2nn1CC	-43.0	-0.7	-1.4%	3.1	0.2
C=CCNC(=O)c1ccc(S(=O)(=O)CC)c(Cl)c1Cl	x	1.9	1.4%	0.9	3.2
CCCc1ccc(Oc2cn[nH]c2-c2ccc(O)cc2O)cc1	-109.3	13.7	-6.5%	6.3	-3.7	Arbovirus anti repeat=-16.8
COc1ccc(Nc2nc(N)c(C(=O)c3ccc(OC)cc3)s2)cc1	x	-1.5	x	-1.1	x
CN1C(=O)/C(=C\c2ccccc2)Sc2ccc(C(=O)N3CCN(c4ccccn4)CC3)cc21	-25.9	x	7.3%	x	-14.3
O=C(Nn1c(-c2ccc(Br)cc2)nc2ccccc2c1=O)c1ccc([N+](=O)[O-])cc1	-22.8	-2.0	6.1%	6.7	22.0
CC(C(=O)Nc1cccc([N+](=O)[O-])c1)N1C(=O)NC2(CCCC2)C1=O (centres undefined)	x	-1.0	x	0.6	x
COc1ccc2[nH]c(=O)c(CN(CCO)C(=O)c3cccs3)cc2c1	11.4	x	-3.4%	-0.4	3.2
Cc1cccc(C(=O)OCC(=O)N2CCC(c3ccccc3)=N2)c1O	x	-1.1	x	0.1	x
FC(F)(F)c1ccc(NC2=NCCC2)cc1	x	5.4	-0.3%	-5.0	0.2
CCCNC(=O)Cn1cnc2sc(C(=O)N3CCC4(CC3)OCCO4)c(C)c2c1=O	x	2.2	x	3.6	x
O=C(NCc1ccccn1)C1CCC(CNS(=O)(=O)c2cccc3nsnc23)CC1 (centres undefined)	x	-2.5	-3.4%	-9.5	x
CC1(C)Cc2c(C#N)c(N)n(-c3ccccc3)c(=S)c2CO1	x	-0.3	-5.8%	-5.4	x
Cc1onc(-c2ccccc2Cl)c1C(=O)Nc1ccc(CN2CCCC2)cc1	-31.5	1.5	-5.6%	-4.5	-4.2
CCCN1CCC(=O)N([C@H](CSc2ccc(OC)cc2)CC(C)C)CC1	x	-1.4	3.5%	-11.6	x
CC(=O)NC1C(=O)N=C(SCC(=O)NCc2ccccc2)NC1=O (centres undefined)	-40.2	-1.8	-1.1%	-4.8	-0.5
COc1cc(NC2=CC(=O)CC(C)(C)C2)cc(OC)c1OC	18.7	-0.4	-3.8%	-1.8	-7.3
Cc1ccc(C2C(C#N)=C(N)Oc3cc4c(cc32)OCO4)cc1 (centres undefined)	-14.1	-11.5	7.6%	-2.0	-24.7

By substructure, the entries above with fluorine.
SMILES	YopH PTP inh	RecA splice inh	Mtb growth	Mtb betalactam	Arbovirus anti	others
COc1ccccc1N1CC(C(=O)OCC(=O)c2ccc(F)cc2)CC1=O (centres undefined)	3.8	-1.3	-11.4%	10.2	13.1
CCc1nnc(NC(=O)CCC(=O)N2CCN(Cc3ccc(OC)c(F)c3)CC2)s1	x	-10.2	x	-3.0	x
FC(F)(F)c1ccc(NC2=NCCC2)cc1	x	5.4	-0.3%	-5.0	0.2

By substructure: those above with bromine
SMILES	YopH PTP inh	RecA splice inh	Mtb growth	Mtb betalactam	Arbovirus anti	others
CNC(=O)/C(=C\c1ccc2c(c1)OCO2)NC(=O)c1ccc(Br)cc1	-0.5	0.0	9.0%	1.0	-6.9
O=C(Nn1c(-c2ccc(Br)cc2)nc2ccccc2c1=O)c1ccc([N+](=O)[O-])cc1	-22.8	-2.0	6.1%	6.7	22.0

Random excerpt: 3 compounds from above, in no set order.
SMILES	YopH PTP inh	RecA splice inh	Mtb growth	Mtb betalactam	Arbovirus anti	others
FC(F)(F)c1ccc(NC2=NCCC2)cc1	x	5.4	-0.3%	-5.0	0.2
CCCNC(=O)Cn1cnc2sc(C(=O)N3CCC4(CC3)OCCO4)c(C)c2c1=O	x	2.2	x	3.6	x
COc1ccc2[nH]c(=O)c(CN(CCO)C(=O)c3cccs3)cc2c1	11.4	x	-3.4%	-0.4	3.2

Going on with the list.
SMILES	YopH PTP inh	RecA splice inh	Mtb growth	Mtb betalactam	Arbovirus anti	others
COc1ccc(-c2nc3ccccc3c(=O)n2CCCn2ccnc2)cc1	-37.2	-1.8	-9.2%	-2.6	-15.2
Cc1ccc(CNC(=O)CSc2nc3ccccc3[nH]2)cc1	x	1.0	x	0.7	x
Cc1c(O)nc(SCC(=O)Nc2nccs2)n(-c2ccccc2F)c1=O	x	0.7	x	1.6	x
Cc1ccc(CNC(=O)C2CCCN(c3ncnc4c3nc3n4CCCCC3)C2)cc1 (centres undefined)	x	2.6	x	1.6	x
O=C(Cc1ccc(Br)cc1)NCCCn1ccnc1	x	1.1	x	-6.0	x
O=C(Cn1ncc2c([nH]c3ccccc32)c1=O)N1CCc2ccccc2C1	x	-2.7	x	2.6	x
Cc1cccc(C)c1N1C(=O)C2ON(c3ccccc3)C(c3ccncc3)C2C1=O (centres undefined)	-45.3	5.6	-14.9%	-17.9	5.0
CC(=O)OC(COc1cccc(C)c1)Cn1cnc2ccccc21 (centres undefined)	x	4.6	2.3%	3.5	23.5
COc1ccc(S(=O)(=O)N2CCC(C(=O)N3CCOCC3)CC2)cc1OC	-35.0	1.1	0.6%	7.9	-1.7	Arbovirus anti repeat=1.0
CCCC(=O)OCC(=O)Nc1ccccc1Sc1ccccc1	-32.0	0.9	-0.6%	-3.0	-8.9
O=C1CCC/C1=C\c1ccccc1	x	-0.4	-3.5%	4.2	3.8
Cc1c(Br)cc(-c2nnco2)cc1Br	-11.8	7.7	-3.8%	-1.8	-2.4
O=C(COC(=O)c1ccccc1NCCO)NCCc1ccccc1	x	-4.7	x	-1.8	x
CC(=O)N1CCN(c2ccc(NC(=O)c3cccc(OCc4ccccc4)c3)cc2)CC1	-34.8	-4.7	1.5%	85.4	-24.4
CCOC(=O)c1ccccc1NC(=O)c1ccc(NS(C)(=O)=O)cc1	-23.2	-1.3	0.8%	15.2	12.0
O=C(c1ccccc1F)N1CCN(c2ccccc2F)CC1	-9.7	x	-3.6%	2.1	1.6
CCN1C(=O)c2cccc3c(S(=O)(=O)NCC4CCCO4)ccc1c23 (centres undefined)	x	-267.8	-4.0%	-8.2	x
CCn1c(=N)n(CCOc2ccc(OC)cc2)c2ccccc21	-44.3	1.3	-4.0%	-5.0	-5.1
Cc1ccc(C)c(Nc2nn3c(=O)c4ccc(C(=O)NCc5cccnc5)cc4nc3s2)c1	x	-0.1	x	8.2	x
CCOC(=O)c1c(C)c(C(=O)N(C)C2CCCCC2)c(C)n1C	4.0	0.1	2.2%	2.1	-4.2
CC1NC(=S)N(C2CCCCC2)C1=O (centres undefined)	x	4.9	-4.7%	1.7	14.3

An excerpt. The share of hits here may be higher or lower than overall.
